HNF4A DNA FP = change in binding of human HNF4A to DNA, primary screen, biochemical, fluorescence polarization, FITC-DNA. Hepatocyte nuclear factor 4-alpha (Homo sapiens), P41235. 1 h. activity change, % at 10 µM. 360,000 tested, 0.3% active; in the data active = activity change above about 30%, passing the limit was not always enough;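 note: controls were the assay level and a saturating level of protein; the project sought stronger binding though the title names inhibitors; some compounds called inactive have numbers as strong as hits; positive values seem to mean higher polarization but the record does not say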
E coli growth = E. coli growth inhibition, primary screen, OD600; Escherichia coli growth, 23 h; active compounds read low; OD600 absorbance (no concentration beside the values); 330,000 tested, 0.21% active; AID 1053175, 2014;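 active = OD600 absorbance below the run mean of sample wells minus 3.6 SD, in any replicate, cut at about 0.56 in these data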;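 note: stock transfer was 300 nL into about 60 µL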
LANA-H2A inh = blockers of LANA interaction with H2A/H2B – biochemical, FP readout, HTS, primary screen; cell-free LANA-H2A/H2B peptide, fluorescence polarization; inhibition, % (test concentration not listed); 320,000 tested, 0.6% active; AID 2629, 2010; in the data active = inhibition mostly above about 10%, no sharp cut-off; inactive = mostly below about 6.7%;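 note: stock transfer was 7.5 nL into about 10 µL; 0% = median of vehicle wells and 100% = median of positive control wells; one replicate is shown; the record names a cut of 25% in any replicate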
Target sequence (Q9QR71 whole entry, looked up): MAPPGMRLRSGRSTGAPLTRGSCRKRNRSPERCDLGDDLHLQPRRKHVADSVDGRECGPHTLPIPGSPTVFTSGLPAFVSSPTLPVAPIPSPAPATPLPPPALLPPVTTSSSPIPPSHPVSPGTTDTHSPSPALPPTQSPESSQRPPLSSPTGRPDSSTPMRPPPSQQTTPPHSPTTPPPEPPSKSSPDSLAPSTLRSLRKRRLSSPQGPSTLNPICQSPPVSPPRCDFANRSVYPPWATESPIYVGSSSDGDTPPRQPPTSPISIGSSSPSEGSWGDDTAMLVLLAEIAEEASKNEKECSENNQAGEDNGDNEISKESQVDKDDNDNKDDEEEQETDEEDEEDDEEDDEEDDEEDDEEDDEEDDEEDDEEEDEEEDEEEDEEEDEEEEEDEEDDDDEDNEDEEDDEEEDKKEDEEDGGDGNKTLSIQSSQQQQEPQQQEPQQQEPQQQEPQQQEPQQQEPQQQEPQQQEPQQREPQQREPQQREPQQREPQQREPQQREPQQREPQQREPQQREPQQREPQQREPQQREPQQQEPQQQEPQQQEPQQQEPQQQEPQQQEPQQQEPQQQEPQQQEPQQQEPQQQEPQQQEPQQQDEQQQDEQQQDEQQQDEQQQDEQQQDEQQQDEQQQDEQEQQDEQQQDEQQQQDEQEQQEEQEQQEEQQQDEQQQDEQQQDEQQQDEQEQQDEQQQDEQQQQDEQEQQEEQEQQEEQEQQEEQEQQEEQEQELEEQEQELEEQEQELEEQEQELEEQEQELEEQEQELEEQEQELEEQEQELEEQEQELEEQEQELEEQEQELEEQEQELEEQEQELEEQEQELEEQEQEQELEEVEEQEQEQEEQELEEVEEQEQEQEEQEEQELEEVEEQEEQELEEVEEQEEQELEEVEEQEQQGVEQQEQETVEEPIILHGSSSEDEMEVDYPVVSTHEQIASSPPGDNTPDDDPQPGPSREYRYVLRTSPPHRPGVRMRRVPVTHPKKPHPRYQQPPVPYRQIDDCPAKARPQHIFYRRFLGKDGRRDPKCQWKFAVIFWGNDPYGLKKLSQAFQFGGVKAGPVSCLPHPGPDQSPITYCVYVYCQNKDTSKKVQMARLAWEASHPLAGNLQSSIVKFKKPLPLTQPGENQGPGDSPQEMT
UCH37 inh = inhibitors of human UCH37 deubiquitinase, primary screen, biochemical, Ub-AMC cleavage, fluorescence | 330,000 tested, 0.33% active | Ubiquitin carboxyl-terminal hydrolase isozyme L5 (Homo sapiens), Q9Y5K5 | inhibition, % (test concentration not listed) | purified proteasome/UCH37;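 active = mean of two replicates above 20%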;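 note: 0% = compound-free wells with enzyme and 100% = wells lacking proteasome; stock transfer was 100 nL into about 20 µL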
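assay system = human UCH37 enzyme supplied as purified proteasome complex | amount = proteasome at 0.15 nM in the dispensed enzyme solution | schedule = 30 min compound-proteasome preincubation then 25 min substrate reaction, room temperature | measured by = fluorescence, ex 355 nm, em 460 nm | benchmarks = no-proteasome wells (full inhibition) and compound-free wells (no inhibition)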
Vif TR-FRET = inhibitors of Vif binding to APOBEC3G peptide, primary screen, biochemical, TR-FRET, GST-Vif 1-94, biotin-A3G peptide, dose response retest (AID 1117319); Virion infectivity factor (Human immunodeficiency virus type 1 group M subtype B (isolate …; 260,000 tested, 0.57% active; inhibition, %; hits with a dose series show IC50 in µM; TR-FRET GST-Vif / biotin-A3G peptide binding; higher % means a stronger effect; test concentration not given here; strong numbers were not always called active;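 active = above the screen mean plus three standard deviations and confirmed in dose response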;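 note: Vif residues 1-94 fused to GST binding biotinylated APOBEC3G peptide 110-148; 0% = full assay without inhibitor and 100% = GST in place of GST-Vif; retest series ran down from 100 µM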
B2AR ag = beta2AR agonists driving receptor internalization, primary screen, cell-based, FAP fluorogen, flow cytometry. response, % (no concentration beside the values). AID 504454, 2011. Am2.2-beta2AR cells; reference of the scale not given here. 340,000 tested, 0.43% active;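 active = response above a set limit, near 3 SD of response in nonfluorescent compounds, cut at about 42% in these data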;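 note: stock transfer was 100 nL into about 11 µL; a reference agonist was the positive control; negative values mostly stem from fluorescent compounds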
Bfl-1 A1 inh = caspase 3/7 activation in MEF A1-2A-BIM cells, primary screen, A1 inhibitor project, cell-based, luminescence, HTS | caspase activation, % (test concentration not listed) | 330,000 tested, 0.066% active | Caspase-Glo 3/7 luminescence, 3 h; percent of clofoctol response, vehicle zero | AID 2462, 2010;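 active = over half of replicate activation scores above 10%, or exactly half above 10 with the replicate mean above 10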;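 note: wells of about 30 µL received 50 nL stock; many hits fall short of the cut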
Starred values were filed as active, the others as inactive; . = not tested or not shown. An unsorted share of the library; overall some 2.1% were active at least once.

Structure,HNF4A DNA FP,E coli growth,LANA-H2A inh,UCH37 inh,Vif TR-FRET,B2AR ag,Bfl-1 A1 inh
O=C(O)/C=C/C(=O)NCc1ccccn1,-2.3,0.65,2.4,-5.1,-4%,2,-0.4
CN(C)/C(CN1CCCCC1)=C1\N=C(c2ccccc2)OC1=O,4.5,0.71,-0.3,5.0,4%,7,0.6
O=C1N(Cc2cccc(Cl)c2)C[C@@H]2C[C@@H](c3ccccn3)N3CCC[C@@]123,-1.4,0.69,0.6,1.5,3%,3,-0.2
Cc1cc(C)cc(N(CCC#N)C(=O)CSc2n[nH]c(N)n2)c1,-1.1,0.63,.,0.7,2%,-5,-0.9
CN1CCN(C(N)=NC(=O)c2ccccc2)CC1,0.9,0.68,5.5,0.9,-6%,3,-0.1
COC(=O)C1CCN(C(=O)COC(=O)C2CCN(S(=O)(=O)c3ccc(C)c(C)c3)CC2)CC1,-0.8,0.66,-0.9,3.2,2%,-3,2.5
O=C(CCC1CCCCC1=O)c1ccccc1 (stereo unspecified),-2.5,0.66,6.5,4.9,-5%,-5,-4.0
COC(=O)c1ccc(CSc2ccccc2C)o1,0.8,0.71,-1.4,1.7,-2%,9,-0.8
CSCCC(NC(=O)c1ccco1)C(=O)O (stereo unspecified),-0.6,0.8,8.4,2.3,3%,-1,0.0
CCc1ccccc1NC(=O)C1C2C=CC(O2)C1C(=O)O (stereo unspecified),0.6,.,2.4,.,2%,0,1.3
S=c1[nH]c2cc(Br)cnc2[nH]1,-2.3,0.66,-0.5,7.8,.,-2,0.1
COC(=O)C1=C(C)N(c2ccc(F)c(Cl)c2)C(=O)C1,1.1,0.71,-0.6,-1.1,7%,10,0.1
COCCN1C(=O)N[C@@H](c2cccc(C(F)(F)F)c2)[C@@H](C(=O)OC)[C@H]1C,0.7,.,1.3,0.9,.,3,0.4
O=C(CN(C(=O)CSc1nc2ccccc2o1)c1ccccc1)NC1CCCCC1,3.4,0.72,5.1,0.8,2%,-6,0.4
CC(C)(O)CC[C@@H](O)[C@](C)(O)C1CC[C@@]2(O)C3=CC(=O)[C@]4(O)C[C@@H](O)[C@@H](O)C[C@]4(C)C3CC[C@]12C (stereo partly specified),-1.1,0.81,2.8,3.7,.,-11,-1.2
NNC(=O)CNC(c1ccccc1)c1cc(Br)ccc1NC(=O)c1cccc(Cl)c1 (stereo unspecified),-1.9,0.71,-2.7,2.7,-6%,1,-0.3
CCC1(C)Cc2c(sc3nn[nH]c(=O)c23)CO1 (stereo unspecified),4.0,0.69,1.3,5.9,4%,8,2.3
Cc1cc(S(=O)(=O)N2CCCC2)c(C)s1,1.0,0.68,-2.9,1.1,0%,-3,-0.1
O=C1CCC([N+](=O)[O-])C(c2cccc([N+](=O)[O-])c2)N1 (stereo unspecified),-1.0,0.69,12,0.0,-12%,-12,0.2
CCn1c(Cc2ccc(OC)cc2)nnc1SCC(=O)Nc1ccc(N2CCOCC2)cc1,-0.5,0.66,-3.0,0.4,.,-2,0.2
Cc1cc(-c2ccc(C)c(S(=O)(=O)NCCCN3CCN(c4ccccc4F)CC3)c2)on1,-0.7,0.69,-4.2,5.6,.,-14,-0.3
COc1cc(C2c3cc4c(cc3OC(NNC(N)=O)C2C)OCO4)cc(OC)c1OC (stereo unspecified),-0.1,.,.,.,3%,18,.
CC1(C)Cc2c(cnn2-c2cccc(F)c2)C(NC(=O)CSc2ccncc2)C1 (stereo unspecified),-0.6,0.67,3.7,6.3,.,8,0.2
Cc1onc(-c2ccccc2)c1C(=O)Nc1cc(C(F)(F)F)ccc1N1CCOCC1,2.7,0.71,2.7,0.6,30%,-4,0.2
CCOC(=O)c1c(NC(=O)COC(=O)Cc2ccccc2[N+](=O)[O-])sc(C(=O)N(C)C)c1C,2.0,0.63,2.5,-1.4,4%,20,0.0
CC(C)CN(C)C(=O)CC1C(=O)NCCN1C (stereo unspecified),-1.8,0.68,-0.2,-1.7,-1%,1,0.4
CN(C)CCN1C(=O)C(=O)/C(=C(/O)c2ccc(OCc3ccccc3)cc2)C1c1ccncc1 (stereo unspecified),1.7,.,.,-1.3,-2%,-4,.
CN(C)/N=C/c1ccc(N2CCOCC2)cc1,3.5,.,2.1,.,-5%,2,-0.9
CC(=O)NS(=O)(=O)c1ccc2sc(C)nc2c1,-2.8,0.68,-0.4,0.6,6%,-4,-1.7
CCOc1cc2[nH]c(=S)n(CCCN3CCCC3=O)c(=O)c2cc1OCC,-3.6,0.69,4.4,7.5,20%,9,0.1
C[C@@H]1C(=O)O[C@H]2CC34[C@H]5C[C@@H](C(C)(C)C)[C@]36[C@@H](OC(=O)[C@@H]6O)O[C@@]4(C(=O)O5)[C@]21O (stereo partly specified),-3.3,.,2.2,0.9,.,2,-0.8
COC(=O)C1=C(C)N=C2SC(C)C(=O)N2C1c1ccc(C(=O)OC)cc1 (stereo unspecified),-0.1,0.69,-5.9,-0.3,-10%,-10,1.9
Cc1ccc(/C(N)=N/OC(=O)c2ccc3ccccc3c2)cc1,6.2,0.66,2.9,2.8,.,1,-0.3
CC(C)Oc1ccc(S(=O)(=O)N2CCCCC2)cc1NC(=O)CN1C(=O)NC2(CCCC2)C1=O,-0.5,0.67,-2.7,0.0,-3%,10,-1.2
CCOC(=O)N1CCN(CC(O)COc2c(C)cccc2C)CC1 (stereo unspecified),4.8,0.72,-1.7,1.0,.,2,2.1
CCCCc1nc2n[nH]c(N)c2c2c1CCC2,-1.7,0.67,-1.4,4.3,0%,1,0.7
O=C(O)CCN1C(=O)C2C3c4ccccc4C(c4ccccc43)C2C1=O (stereo unspecified),-0.9,0.72,-12,0.8,3%,-3,0.0
O=C(Nc1ccc(C(=O)O)cc1)/C(=C/c1cccc(Br)c1)NC(=O)c1ccco1,-1.8,0.71,-1.4,7.0,-3%,-1,-0.4
CN(Cc1ccco1)C(=O)c1ccc(CNS(=O)(=O)c2ccc3c(c2)C(C)(C)C(=O)N3C)cc1,2.3,0.77,-1.5,3.9,.,-1,0.6
Cc1nn(Cc2ccccc2)c(C)c1/C=N/NC(=O)CNc1cccc(C(F)(F)F)c1,-3.0,.,-2.6,.,13%,2,0.4
CCOc1cc(/C=N/NC(N)=O)cc(Br)c1OCC(=O)Nc1cccc2ccccc12,4.5,.,-1.4,.,19%,8,1.7
CC(C)C(NC(=O)c1ccccc1)c1nnc(SCC(=O)NC2CCCC2)n1C (stereo unspecified),1.0,0.67,-2.7,1.2,2%,7,0.2
Cc1cnc(NCCc2ccccc2)s1,1.4,0.65,-0.3,2.1,.,-4,-1.2
COC(=O)c1[nH]c2cccc(OC)c2c1NC(=O)C(C)N1CCC(C)CC1 (stereo unspecified),.,0.6,-1.3,-34,-5%,.,0.0
CCn1ncc([N+](=O)[O-])c1C(=O)Nc1c(C)cccc1C,-1.5,0.7,-1.7,4.2,.,-2,-0.1
COc1cccc(-c2ccc(NC(=O)C3CCCN(CCCn4nc(C)cc4C)C3)cc2)c1 (stereo unspecified),1.3,0.65,1.1,-0.3,.,9,0.3
c1ccc(-c2nc(NCc3ccco3)c3ccccc3n2)nc1,-2.4,0.66,2.1,4.6,12%,-2,-1.1
COc1ccc(S(=O)(=O)N(CC(=O)NC(C)C)Cc2ccccc2)cc1,0.9,0.71,0.8,3.6,0%,-3,-0.5
CC1(c2ccccc2)NC(=O)N(CCN2C(=O)c3ccccc3C2=O)C1=O (stereo unspecified),-2.1,0.7,-2.5,3.8,-1%,0,-0.3
CCCCCCc1cc2cc(C(=O)NC)c(=N)oc2cc1O,-83,0.67,11,-169,-2%,-91,-2.2

Continuation.
Structure,HNF4A DNA FP,E coli growth,LANA-H2A inh,UCH37 inh,Vif TR-FRET,B2AR ag,Bfl-1 A1 inh
COc1ccc(N(CC(=O)NCCSc2ccccc2)S(=O)(=O)c2ccccc2)cc1,1.1,0.71,-0.3,2.2,.,1,-0.5
CCN(CC)CCOC(=O)c1ccc(NC(=O)CCCN2C(=O)/C(=C\c3cccs3)SC2=S)cc1,15,0.7,2.8,5.2,-2%,-9,0.1
COCCN(C(=O)CSc1nnc(-c2ccccc2F)n1C)c1c(N)n(Cc2ccccc2)c(=O)[nH]c1=O,5.6,0.68,0.4,1.1,-17%,-6,-1.2
O=C(NCC(c1ccco1)N1CCc2ccccc2C1)c1ccc(F)cc1 (stereo unspecified),-0.5,0.66,-3.0,1.0,-9%,-11,-0.7
CC(C)c1ccc(NC(=O)CSc2nc(=O)n(CCN3CCOCC3)c3c2CCC3)cc1,3.2,0.7,-3.2,3.9,7%,8,-0.3
O=C(CCNS(=O)(=O)c1ccc(Br)cc1)NC1CCC(O)CC1 (stereo unspecified),0.6,0.66,-1.2,0.8,-7%,-3,-0.1
COc1ccccc1/C=C/C=N/n1c(-c2ccncc2)n[nH]c1=S,-3.8,.,-0.7,.,-2%,-2,-0.2
O=C(NCCO)c1cccc2c1C(=O)c1ccccc1-2,-3.9,0.69,-2.5,2.4,-1%,-8,-0.5
Cc1cccc(-c2nnc(NC(=O)c3cccs3)s2)c1,21,0.72,1.2,6.3,-14%,6,-2.2
O=C(C1Cc2ccccc2CN1S(=O)(=O)c1ccccc1[N+](=O)[O-])N1CCOCC1 (stereo unspecified),0.6,0.69,-2.0,4.2,-5%,-9,1.4
O=C(CN(Cc1ccccc1F)S(=O)(=O)c1ccc(Cl)cc1)NCC1CCCO1 (stereo unspecified),2.8,0.66,0.7,3.8,.,-6,0.6
O=C(Cc1csc(-c2ccccc2)n1)NCc1ccccc1F,.,0.67,-2.7,-0.6,-16%,.,0.7
COc1ccc(C2C(C(C)=O)=C(C)N=c3s/c(=C\c4ccco4)c(=O)n32)c(OC)c1 (stereo unspecified),21,.,3.0,.,31%,-13,1.5
COc1ccc(C(=O)Nc2ccccc2C(=O)Nc2ccncc2)cc1,-1.2,0.72,-1.7,2.1,0%,4,-5.2
Clc1ccc(-c2nc3ccccn3c2CN2CCCCC2)cc1,-0.7,0.63,3.5,-3.5,8%,-12,-0.2
COc1cc(/C=C2/C(=N)N3C(SC)=NSC3=NC2=O)ccc1OC(=O)c1ccco1,22,0.63,-1.5,6.5,.,-12,-5.7
O=C1CSC(c2ccccc2)N1Cc1ccccn1 (stereo unspecified),-2.6,0.71,0.5,1.0,-7%,-13,-0.3

Four entries from above in another layout:
canonical_smiles: Cc1cccc(-c2nnc(NC(=O)c3cccs3)s2)c1
  HNF4A DNA FP = 21	E coli growth = 0.72	LANA-H2A inh = 1.2	UCH37 inh = 6.3	Vif TR-FRET = -14%	B2AR ag = 6	Bfl-1 A1 inh = -2.2
canonical_smiles: O=C1CCC([N+](=O)[O-])C(c2cccc([N+](=O)[O-])c2)N1 (stereo unspecified)
  HNF4A DNA FP = -1.0	E coli growth = 0.69	LANA-H2A inh = 12	UCH37 inh = 0.0	Vif TR-FRET = -12%	B2AR ag = -12	Bfl-1 A1 inh = 0.2
canonical_smiles: CN1CCN(C(N)=NC(=O)c2ccccc2)CC1
  HNF4A DNA FP = 0.9	E coli growth = 0.68	LANA-H2A inh = 5.5	UCH37 inh = 0.9	Vif TR-FRET = -6%	B2AR ag = 3	Bfl-1 A1 inh = -0.1
canonical_smiles: CC(C)c1ccc(NC(=O)CSc2nc(=O)n(CCN3CCOCC3)c3c2CCC3)cc1
  HNF4A DNA FP = 3.2	E coli growth = 0.7	LANA-H2A inh = -3.2	UCH37 inh = 3.9	Vif TR-FRET = 7%	B2AR ag = 8	Bfl-1 A1 inh = -0.3
